# Screening results as filed in PubChem.
# StopGo reporter – High Throughput Screening for Foot and Mouth Disease Virus Antivirals | AID 1159524, 2015 | human cells with a luciferase reporter of 2A StopGo recoding; control for the full effect not named in the record | Potency, µM (doses to about 57.9 µM), inactives show top-dose signal change, negative = less light | 410,000 compounds, 1.2% hits; active = well fitted falling curve with a large enough effect; inconclusive = small, poorly fitted or top-dose-only effect; inactive = no such curve, though single readings can be large or run the other way; tested in HEK293T cells; note: % is set by controls: 0 for no effect and ±100 for the full control effect; nearly all actives have a fitted effect of over 45% in size; luciferase light after 4 h
# SARS PLpro yeast – qHTS of Yeast-based Assay for SARS-CoV PLP; S. cerevisiae expressing SARS-CoV PLpro, growth rescue; control for the full effect not named in the record; Potency, µM (top dose mostly 32.9 µM), without a hit: top-dose activity, positive = growth rescue; 330,000 compounds, 0.19% hits; AID 485353, 2010; note: 0% is about no effect; nearly all actives have a fitted effect of over 55% in size; growth read by luminescence after 48 h
# Cruzain Triton – qHTS Assay for Promiscuous and Specific Inhibitors of Cruzain (with detergent). purified cruzain, Z-FR-AMC fluorescence, 0.01% Triton. Potency, µM, without a hit: max response, negative = inhibition, most hits filed as inhibitors. 200,000 compounds, 0.43% hits. AID 1478, 2009; active = well fitted curve in the direction sought with a large enough effect; inconclusive = small, poorly fitted or top-dose-only effect, or another doubt; inactive = no such curve, though single readings can be large; an effect the other way counts as inactive or inconclusive;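 note: plate controls were neutral wells for no effect and buffer without enzyme for full effect; nearly all actives have a fitted effect of over 40% in size; top concentration of the series not given in the record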
# Target sequence (P25779 123-467 limits assumed): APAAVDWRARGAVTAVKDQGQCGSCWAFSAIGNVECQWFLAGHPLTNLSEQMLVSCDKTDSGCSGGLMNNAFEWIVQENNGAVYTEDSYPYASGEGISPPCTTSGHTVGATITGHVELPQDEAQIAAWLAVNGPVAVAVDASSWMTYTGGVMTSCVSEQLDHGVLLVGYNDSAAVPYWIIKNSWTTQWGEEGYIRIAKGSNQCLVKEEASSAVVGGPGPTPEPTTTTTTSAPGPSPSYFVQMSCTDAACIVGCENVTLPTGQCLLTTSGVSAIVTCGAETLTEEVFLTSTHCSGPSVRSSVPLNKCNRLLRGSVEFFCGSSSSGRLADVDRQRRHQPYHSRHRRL
#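 In this qHTS format, compounds are incubated with 1.5 nM cruzain for 15 min at room temperature before 2 uM Z-FR-AMC is added. Release of AMC is followed at 360/450 nm, and progress is taken as the 60 s fluorescence difference.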
# RE007 growth inh – qHTS Assay for Inhibitors of the HIV-1 protein Vpr | 360,000 compounds, 0.21% hits | Potency, µM (titrated, usually from 92.2 µM), without a hit: at the highest dose activity change, negative = less growth | S. pombe RE007 Vpr strain, BacTiter-Glo ATP luminescence, 24 h; control for the full effect not named in the record; active = well fitted falling curve with a large enough effect; inconclusive = small, poorly fitted or top-dose-only effect; inactive = no such curve, though single readings can be large or run the other way;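 note: % is set by controls: 0 for no effect and ±100 for the full control effect; nearly all actives have a fitted effect of over 50% in size; the assay follows cell death caused by Vpr and the record does not say whether a fall means rescue or toxicity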
#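 Fission yeast RE007 carrying one integrated HIV-1 vpr copy, seeded at OD 0.01 in PMG+AL medium with 23 nL pinned compound. Grown 24 h at 30 degrees; viability read by BacTiter-Glo luminescence after 5 min.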
# MARV entry inh – qHTS for inhibitors of binding or entry into cells for Marburg Virus. Potency, µM (titrated, usually from 37.8 µM), for inactives: at the top dose activity change, negative = inhibition, actives largely listed as inhibitors. 300,000 compounds, 1.8% hits. Marburg virus pseudotyped entry inhibition, cell reporter; control for the full effect not named in the record; about a third of the inactives were read at about 46 µM; active = well fitted inhibition curve with a large enough effect; inconclusive = small, poorly fitted or top-dose-only effect, or effect the other way; inactive = flat fitted curve, though single readings scatter; tested in HEK293 cells; about a fifth of its hits are not listed in these tables; note: % is set by controls: 0 for no effect and ±100 for the full control effect; luciferase read-out
# Cruzain noTriton – qHTS Assay for Promiscuous and Specific Inhibitors of Cruzain (without detergent) | 200,000 compounds, 2.3% hits | purified cruzain, Z-FR-AMC fluorescence, no detergent | Potency, µM, for inactives: max response, negative = inhibition, actives largely listed as inhibitors | AID 1476, 2009; active = well fitted curve in the direction sought with a large enough effect; inconclusive = small, poorly fitted or top-dose-only effect, or another doubt; inactive = no such curve, though single readings can be large; an effect the other way counts as inactive or inconclusive;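 note: plate controls were enzyme without inhibitor for no effect and buffer without enzyme for full effect; nearly all actives have a fitted effect of over 40% in size; top concentration of the series not given in the record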
#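 Purified cruzain at 1.5 nM, pre-incubated 15 min with compound at room temperature in 100 mM sodium acetate pH 5.5, 5 mM DTT, 0.00005% Triton X-100. Reaction started with 2 uM Z-FR-AMC; AMC fluorescence increase over 60 s gives rate.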
# NS1 inh – qHTS Assay for Inhibitors of Influenza NS1 Protein Function; S. cerevisiae slowed by influenza A NS1, growth recovery by OD600; Potency, µM (top dose mostly 46.1 µM), for inactives: at the top dose activity, positive = more growth; 270,000 compounds, 0.4% hits; AID 2326, 2010; note: actives are rising curves; nearly all actives have a fitted effect of over 50% in size
#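 In this qHTS, NS1 from influenza A is expressed in budding yeast, where it slows growth. Cells are switched from glucose to 2% galactose medium (pH 6.0, -URA), treated with compound, and growth recovery is read at OD600.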
# LASV entry inh – qHTS for Inhibitors of binding or entry into cells for Lassa Virus. Lassa virus pseudotype entry inhibition, cell reporter; control for the full effect not named in the record. 300,000 compounds, 1.2% hits. AID 540256, 2011. Potency, µM (highest dose often 37.9 µM), for the others: top-dose activity change, negative = inhibition, usual class: inhibitors; active means well fitted inhibition curve with a large enough effect; inconclusive means small, poorly fitted or top-dose-only effect, or effect the other way; inactive means flat fitted curve, though single readings scatter; tested in HEK293 cells; note: % is set by controls: 0 for no effect and ±100 for the full control effect; nearly all actives have a fitted effect of over 50% in size; luciferase read-out
# The depositor's hits bear a star; ? = inconclusive; nt = no result given; & = joins results of further samples; [ ] = another dose, or the depositor's remark. Unless noted, calls come from the whole dose curve; as a rule, active means well fitted rising curve with a large enough effect; inconclusive means small, poorly fitted or top-dose-only effect; inactive means no such curve, though single readings can be large or run the other way. Potency is the fitted concentration of half-maximal effect.
no.	mol	LASV entry inh	SARS PLpro yeast	Cruzain noTriton	NS1 inh	MARV entry inh	Cruzain Triton	RE007 growth inh	StopGo reporter
1	COc1ccc(C(=O)NCCS(=O)(=O)NCc2ccccc2OC)cc1	-9%	-8%	nt	nt	-3%[46.1 µM]	nt	-1%	-3%
2	CCOC(=O)NC(Nc1sc2c(c1C(=O)OC)CCN(C)C2)(C(F)(F)F)C(F)(F)F	-10%	-2%	-12%	5%	-4%	-14%	20%	-14%
3	Nc1[nH]c(=O)ncc1F	18%	-47%&-17%	-1%&1%	-34%	11%&11%&11%&11%	3.2%&4.1%	-2%	-2%
4	O=C(COc1ccccc1[N+](=O)[O-])N1CCN(C(=O)c2ccco2)CC1	?	1%	nt	10%	?	nt	-1%	-25%
5	O=C(NNS(=O)(=O)c1ccc(F)cc1)c1ccc([N+](=O)[O-])cc1Cl	12%[46.1 µM]	-4%	nt	-10%	-3%[46.1 µM]	nt	15%	-5%
6	NC(=O)CSC1=Nc2ccccc2C2=NC(c3ccccc3)C(=O)N12 (stereo not given)	11%	0%	nt	nt	-24%[46.1 µM]	nt	2%	3%
7	CC(=O)Oc1ccc2oc(/C=C/N(C)C)c([N+](=O)[O-])c2c1	5%	10%	-7%	4%	14%	-4.9%	-15%[3.69 µM]	48%[activator]
8	CCOc1cccc(-c2nnc3sc(COc4ccc(C)cc4)nn23)c1	?	-2%	1%	-4%	19%	-4.0%	16%	-24%
9	CCN(CC)CCCNC(=O)c1cn(C)c(=O)c2c1c1ccccc1n2C	nt	3%	nt	17%	nt	nt	-18%	-2%
10	CC1(C)Cc2c(cnn2-c2cccc(F)c2)C(NC(=O)CCc2cnccn2)C1 (stereo not given)	nt	-3%	nt	-8%	nt	nt	4%	19%
11	CCOc1ccc(NC(=O)Cc2c(C(=O)O)n(C)c3ccccc23)cc1	-2%	-2%	nt	6%	5%	nt	3%	-7%
12	CC(=NCCc1c(C)[nH]c2ccc(OCc3ccccc3)cc12)C1=C(O)CC(c2ccccc2)CC1=O (stereo not given)	nt	1%	nt	nt	?	nt	-10%	-11%
13	CCc1noc(C)c1C(=O)NNC(=O)COc1ccc(C)cc1	16%	0%	nt	nt	8%[46.1 µM]	nt	6%	-8%
14	CN(C)C(=O)NC(O)C(Cl)Cl (stereo not given)	nt	-5%	15%	-3%	2%	7.1%	nt	nt
15	COc1ccc(CNc2ccc([N+](=O)[O-])cc2C)cc1	2%[46.1 µM]	-3%	nt	3%	-27%[46.1 µM]	nt	0%	-3%
16	Cc1oc2ccc(OCc3c(F)cccc3Cl)cc2c1C(=O)O	nt	1%	nt	3%	nt	nt	11%	-9%
17	CC(C)S(=O)(=O)c1cnc(N2CCOCC2)nc1N	?	0%	nt	2%	24%&24%[46.1 µM]	nt	-3%	26%
18	CC1CN(C)C(C)c2c1oc1ccc([N+](=O)[O-])cc21 (stereo not given)	1%	1%	nt	2%	11%[14.2 µM]	nt	-4%	-3%
19	Cc1ccc(Nc2nc(N)nc(CSc3nnc(-c4ccncc4)o3)n2)cc1	25%	-2%	-1%	?	3%	2.4%	15%	24%
20	COc1ccccc1OCC(O)CN1C(=O)NC(C)(C)C1=O (stereo not given)	nt	-1%	10%	5%	2%	1.4%	-1%	-14%
21	Cn1c(COc2ccc(Cl)cc2)nnc1SCC(=O)Nc1ccc2c(c1)CCC2	6%	9%	?	-8%	27%	-1.4%	-4%	12%
22	COc1cc(C(=O)N/N=C(\c2ccccc2)c2ccccn2)cc(OC)c1OC	nt	6%	-3%	4%	nt	-3.9%	7%	40µM*
23	Nc1c(Cl)c(Cl)nc(C(=O)N/N=C/c2cccnc2)c1Cl	7%	-1%	nt	2%	-4%[14.2 µM]	nt	3%	2%
24	Cn1c(=O)oc2cc(S(=O)(=O)N3CCCC(C(=O)NCc4cccs4)C3)ccc21 (stereo not given)	nt	0%	-6%	8%	-6%	2.7%	-3%	0%
25	CCS(=O)(=O)N1CCC(C(=O)NC2CCCCCCC2)CC1	?	2%	7%	-4%	14%	-1.7%	3%	-18%
26	CCCOC(=O)/C(=C\C=C\c1ccco1)NC(=O)c1ccccc1	9%	-3%	nt	nt	11%[46.1 µM]	nt	5%	3%
27	CC1(C)Cc2ccccc2-c2nc3n(c(=O)c21)CCS3	3%[46.1 µM]	0%	nt	0%	8%[46.1 µM]	nt	-14%	-12%
28	COc1ccc(CCNCc2cccn2C)cc1	nt	0%	nt	8%	nt	nt	-11%	-9%
29	COc1ccc(C(=O)N/N=c2\oc3ccccc3cc2C(N)=O)cc1	-2%	-3%	nt	nt	-16%[46.1 µM]	nt	4%	25%
30	O=C(Nc1cccc(Cl)c1)Nc1ccccc1OCc1cc(=O)n2ccccc2n1	26%[46.1 µM]	nt	-1%	nt	nt	4.3%	nt	18%
31	CCCN1CCN(CCCNC(=O)c2cc3c(s2)-c2ccccc2OC3)CC1	nt	2%	?	-9%	?	?	-28%	0%&-2%
32	COc1ccc(/C=C/c2cc(-c3ccc(C)cc3)o[n+]2C)cc1	?	-11%	-10%	-123%	?	-16%	15%	2.8µM*
33	O=C(COC(=O)c1cccc(S(=O)(=O)N2CCCCCC2)c1)NCc1ccc(Cl)cc1	?	5%	nt	nt	17%	nt	16%	-13%
34	CN(C)/C(=N\S(=O)(=O)c1ccc(Br)cc1)c1ccccc1	-9%[46.1 µM]	-1%	nt	6%	?	nt	7%	2%
35	FC(F)(F)c1cnc(N/N=C/c2ccncc2)c(Cl)c1	17%[46.1 µM]	-6%	nt	-7%	10%[46.1 µM]	nt	-24%	19%
36	COc1ccccc1C(=O)NC1CCN(C(=O)Nc2ccc(C)cc2)CC1	-3%	8%	nt	6%	-4%	nt	2%	2%
37	COc1cc(S(=O)(=O)n2ccnc2C(C)C)ccc1Br	?	nt	-3%	nt	?	-0.6%	nt	0%
38	COc1ccc(/C=C2\SC(=S)N(CC(=O)NC3CCS(=O)(=O)C3)C2=O)cc1 (stereo not given)	nt	0%	nt	1%	nt	nt	4%	14%
39	CCOC(=O)/C=C1\NC(=O)CS1	6%	8%	1%	2%	1%	0.5%	12%	-7%
40	O=C1CC(c2ccccc2)CC2=C1C=Nc1ccccc1N2 (stereo not given)	?	-1%	nt	-37%	?	nt	0%	?

# Whole records as entered above.
# COc1ccccc1C(=O)NC1CCN(C(=O)Nc2ccc(C)cc2)CC1 is entered as LASV entry inh: -3%; SARS PLpro yeast: 8%; Cruzain noTriton: nt; NS1 inh: 6%; MARV entry inh: -4%; Cruzain Triton: nt; RE007 growth inh: 2%; StopGo reporter: 2%
# COc1ccc(/C=C2\SC(=S)N(CC(=O)NC3CCS(=O)(=O)C3)C2=O)cc1 (stereo not given) is entered as LASV entry inh: nt; SARS PLpro yeast: 0%; Cruzain noTriton: nt; NS1 inh: 1%; MARV entry inh: nt; Cruzain Triton: nt; RE007 growth inh: 4%; StopGo reporter: 14%

# Structural class, those above containing a CF3 group.
no.	mol	LASV entry inh	SARS PLpro yeast	Cruzain noTriton	NS1 inh	MARV entry inh	Cruzain Triton	RE007 growth inh	StopGo reporter
2	CCOC(=O)NC(Nc1sc2c(c1C(=O)OC)CCN(C)C2)(C(F)(F)F)C(F)(F)F	-10%	-2%	-12%	5%	-4%	-14%	20%	-14%
35	FC(F)(F)c1cnc(N/N=C/c2ccncc2)c(Cl)c1	17%[46.1 µM]	-6%	nt	-7%	10%[46.1 µM]	nt	-24%	19%

# Other structures
no.	mol	LASV entry inh	SARS PLpro yeast	Cruzain noTriton	NS1 inh	MARV entry inh	Cruzain Triton	RE007 growth inh	StopGo reporter
41	C=CCn1c(Cc2ccc(OC)cc2)nnc1SCC(N)=O	1%	6%	-6%	4%	-23%	1.1%	-12%	50%[activator]
42	COC(=O)c1ccc(NC(=O)CC2C(=O)N(c3cccc(C)c3)C(=O)N2C2CCCC2)cc1 (stereo not given)	-24%[46.1 µM]	nt	-5%	nt	nt	-8.4%	nt	-13%
43	CSC1=N/C(=C/c2ccc(-n3cncn3)cc2)C(=O)N1	3%	-1%	nt	4%	13%[46.1 µM]	nt	-10%	17%
44	N#CCCN(C(=O)COC(=O)c1cc(S(=O)(=O)N2CCOCC2)ccc1Cl)c1ccc(F)cc1	-18%	-2%	nt	nt	12%	nt	7%	-20%
45	CC1CCCCC1NC(=O)c1cc2c(=O)n3ccccc3nc2n1C (stereo not given)	nt	15%	nt	3%	nt	nt	22%	3%
46	NS(=O)(=O)c1ccc(CCNC(=O)c2ccc(-c3ccccc3)cc2)cc1	4%	3%	nt	?	-5%	nt	30%	-1%
47	O=C1CNC(=O)/C1=C/c1ccc(Br)cc1	18%	-1%	nt	3%	-2%[46.1 µM]	nt	-20%	1%
48	ClC1C(Cl)C(Cl)C(Cl)C(Cl)C1Cl (stereo not given)	nt	nt	5%&-2%	nt	nt	1.4%&0.1%	2%&5%[18.4 µM]	-13%&-10%&-9%
49	O=c1[nH]c2cccnc2n1Cc1ccco1	20%	0%	3%	8%	20%	6.8%	-2%	-17%
50	NC(=O)c1sc2nc(N3CCOCC3)c3c(c2c1N)CCCC3	-8%	9%	-6%	1%	-6%	-10%	-5%	?
51	O=C(COC(=O)c1ccccc1-c1nc2ccccc2s1)Nc1ccccc1C(F)(F)F	18%	-10%	6%	0%	?	-9.7%	-3%	-2%

# Screen by screen, as entered above:
# Cruzain noTriton, nos. 41 to 51: -6%, -5%, nt, nt, nt, nt, nt, 5%&-2%, 3%, -6%, 6%
# RE007 growth inh, nos. 41 to 51: -12%, nt, -10%, 7%, 22%, 30%, -20%, 2%&5%[18.4 µM], -2%, -5%, -3%
# LASV entry inh, nos. 41 to 51: 1%, -24%[46.1 µM], 3%, -18%, nt, 4%, 18%, nt, 20%, -8%, 18%
